Source: PubChem BioAssay
TRPV1 potentiator: potentiators of human vanilloid receptor 1 (TRPV1); TRPV1-expressing cells, Fluo-8 calcium influx, capsaicin EC20 potentiation; host cell line not named in the record; control for the full effect not named in the record; potentiation, % at 8.33 µM; Q8NER1; AID 540277; hit rate 0.02% among 320,000; active means potentiation above 80%; inconclusive means 30% to 80%; inactive means below 30%; note: 0% is about no effect
Target sequence (Q8NER1 whole entry, looked up): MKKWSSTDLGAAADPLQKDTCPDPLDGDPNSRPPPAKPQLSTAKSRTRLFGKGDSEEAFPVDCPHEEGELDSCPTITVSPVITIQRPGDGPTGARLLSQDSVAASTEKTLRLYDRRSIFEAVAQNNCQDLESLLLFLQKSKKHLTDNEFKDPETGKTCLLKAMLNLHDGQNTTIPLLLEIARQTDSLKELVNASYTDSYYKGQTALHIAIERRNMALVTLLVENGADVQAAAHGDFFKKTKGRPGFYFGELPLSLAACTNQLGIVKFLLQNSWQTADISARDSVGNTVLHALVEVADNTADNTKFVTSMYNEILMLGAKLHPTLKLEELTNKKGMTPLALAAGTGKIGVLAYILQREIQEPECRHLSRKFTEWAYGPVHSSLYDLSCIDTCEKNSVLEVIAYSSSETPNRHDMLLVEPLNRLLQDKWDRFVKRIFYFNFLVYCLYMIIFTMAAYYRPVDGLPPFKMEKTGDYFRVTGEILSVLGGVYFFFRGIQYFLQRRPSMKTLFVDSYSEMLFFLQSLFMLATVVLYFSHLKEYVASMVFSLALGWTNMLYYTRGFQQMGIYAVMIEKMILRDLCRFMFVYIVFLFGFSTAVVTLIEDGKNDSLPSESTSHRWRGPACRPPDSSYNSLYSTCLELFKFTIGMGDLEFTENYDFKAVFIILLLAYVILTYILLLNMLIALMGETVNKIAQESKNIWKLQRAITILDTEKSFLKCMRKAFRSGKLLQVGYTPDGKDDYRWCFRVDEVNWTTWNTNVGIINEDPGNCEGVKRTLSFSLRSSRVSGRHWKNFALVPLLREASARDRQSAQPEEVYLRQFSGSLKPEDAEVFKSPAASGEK
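Cells expressing TRPV1 were dye-loaded with Fluo-8 and read kinetically: 10 s baseline, 3 min after compound (agonist portion), then 2 min after EC20 capsaicin (allosteric enhancer portion). Calcium-bound dye fluorescence at 480/520 nm.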
ClpP mod: qHTS Assay for Activators of ClpP; purified B. subtilis ClpP, FRET peptide cleavage, 20 min; hit rate 1.9% among 340,000; Potency, µM (doses to about 57.5 µM), for inactives: at the top dose activity change, negative = active; ATP-dependent Clp protease proteolytic subunit (Bacillus subtilis (strain 168)), P80244; active = well fitted falling curve with a large enough effect; inconclusive = small, poorly fitted or top-dose-only effect; inactive = no such curve, though single readings can be large or run the other way; note: potency is the fitted concentration of half-maximal effect; the source files actives as falling curves though it sought activators and does not explain the sign; nearly all actives have a fitted effect of over 65% in size; many hits overshoot -100%
Target sequence (P80244 whole entry, looked up): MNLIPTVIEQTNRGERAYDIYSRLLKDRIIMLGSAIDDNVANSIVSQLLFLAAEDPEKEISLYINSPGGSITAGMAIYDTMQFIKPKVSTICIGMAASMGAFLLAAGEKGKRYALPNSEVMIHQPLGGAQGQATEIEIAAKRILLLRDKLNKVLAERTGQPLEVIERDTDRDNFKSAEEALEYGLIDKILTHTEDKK
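Buffer: 100 mM Tris/HCl pH8, 100 mM KCl, 0.05% low protease BSA, 2.5% glycerol, 0.01% Tween-20. ClpP 10 microg/mL final; 20 min RT; delta FRET normalized to ADEP and DMSO controls.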
gsp agonist: gsp mutant agonism; gsp mutant cells, cAMP HTRF, 30 min; control for the full effect not named in the record; Potency, µM (top dose mostly 76.9 µM), inactives show at the highest dose activation (cAMP increase), hits mostly activators; hit rate 0.13% among 340,000; active = well fitted activation curve with a large enough effect; inconclusive = small, poorly fitted or top-dose-only effect, or another doubt; inactive = no such curve, though single readings can be large or run the other way; cell line not stated here;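 note: phosphodiesterase inhibitor Ro 20-1724 added with compounds to block cAMP breakdown; potency is the fitted concentration of half-maximal effect; nearly all actives have a fitted effect of over 60% in size; about a fifth of the inactives were tested at one dose only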
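Cells in DMEM/10% FBS with G418 were pretreated with compounds in DMSO plus […] (300 uM stock) for 30 min at 37C. cAMP was measured by HTRF (cAMP-d2 plus anti-cAMP antibody-K) after 30 min at room temperature.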
Sfp PPTase inh: blocks B. subtilis Sfp PPTase activity; Potency, µM, for the others: max response, negative = inhibition, actives largely listed as inhibitors; Q9F4F7; hit rate 3.5% among 310,000; Biochemical Sfp PPTase activity, qHTS; active = well fitted inhibition curve with a large enough effect; inconclusive = small, poorly fitted or top-dose-only effect, or another doubt; inactive = no such curve, though single readings can be large or run the other way;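 note: the enzyme is Sfp with the accession as filed and its product quenches rhodamine fluorescence; potency is the fitted concentration of half-maximal effect; 0% = enzyme reaction without inhibitor and -100% = no enzyme wells; top concentration of the series not given in the record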
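Reaction rates are the 30-min fluorescence difference (ex 525, em 598 nm) in wells containing 15 nM Sfp, 5 uM rhodamine-CoA and 12.5 uM BHQ-2-YbbR at pH 7.6 with 10 mM MgCl2.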
CtBP-E1A inh: inhibitors of CtBP/E1A interaction; AlphaScreen GST-E1A/His-CtBP binding, 1536-well; hits give low values; control for the full effect not named in the record; hit rate 0.49% among 340,000; activity change, % (no concentration beside the values); in the data active means activity change below about -65%; inconclusive means about -30% to -65%; inactive means above about -30%; note: % is set by controls: 0 for no effect and ±100 for the full control effect; compound concentration not given in the record
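Homogeneous bead-based format: GST-tagged E1A captured on glutathione donor beads, His-tagged CtBP on nickel acceptor beads; compounds precede bead addition by 2 h at 37 °C.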
Menin-MLL FL inh: inhibitors of human menin-MLL interaction, wild-type MLL peptide; FP activity change, % at 61.4 µM; Fluorescence polarization, fluorescein-MLL peptide displacement from menin; 290,000 tested, under 10 active; inconclusive = falling polarisation curve, or a change in total fluorescence; inactive = total fluorescence flat and polarisation flat or rising; no compound was filed as active; the % refers to the polarisation; negative = inhibition;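 note: % of control where 0% means no effect; inhibitors lower the polarisation; unlabelled MLL peptide was the positive control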
gsp antagonist: gsp mutant antagonism; Potency, µM (top dose mostly 76.9 µM), inactives show top-dose activity change, negative = inhibition, hits mostly inhibitors; hit rate 0.4% among 340,000; gsp-mutant cells, cAMP HTRF, 30 min; control for the full effect not named in the record; active = falling curve of any shape with a large fitted effect; inconclusive = falling curve, mostly with a smaller effect; inactive = flat or rising curve; cell line not stated here;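 note: intracellular cAMP measured with PDE inhibitor Ro 20-1724 present during compound exposure; potency is the fitted concentration of half-maximal effect; % is set by controls: 0 for no effect and ±100 for the full control effect; nearly all actives have a fitted effect of over 65% in size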
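G418-selected cells were plated in DMEM/10% FBS for 16-24 h at 37C, then treated with compounds plus the PDE inhibitor […] (300 uM solution added) for 30 min at 37C. Intracellular cAMP was measured by HTRF after 30 min lysis at room temperature.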
Numbers without * were called inactive; ? = inconclusive; nt = no result given; & = joins results of further samples; [ ] = remark or other dose.

Below each compound – TRPV1 potentiator, ClpP mod, gsp agonist, Sfp PPTase inh, CtBP-E1A inh, Menin-MLL FL inh, gsp antagonist
1. O=C(N/C(=C/c1cccnc1)C(=O)N1CCCCCC1)c1ccccc1
 : -1, nt, 14%[15.4 µM], 16%, 3, -4.2, nt
2. CC(C)c1ccc(/C=C/C(=O)Nc2ccc(CN3CCOCC3)cc2)cc1
 : -12, nt, 6%[15.4 µM], -7%, 4, -5.2, -19%
3. O=c1[nH]c2ccc(Br)cc2o1
 : nt, nt, -19%, nt, 4, nt, 3%
4. CCn1cnc2c1c(=O)n(Cc1ccc(C(=O)OC)cc1)c(=O)n2Cc1ccccc1
 : -3, nt, 0%, -16%, -1, -2.9, 2%
5. CCCn1c(SCC(=O)NC(=O)NC(C)(C)C)n[nH]c1=O
 : 0, -0.8%, -8%, 15%, nt, 0.1, 3%
6. O=C(NC(=S)Nc1ccc2[nH]c(=O)[nH]c2c1)c1cc(Br)ccc1Cl
 : 8, -0.3%, -31%, 1%, 3, nt, 3%
7. Cc1ccc(N2C(=O)/C(=C\c3ccco3)SC2=S)cc1
 : 4, 3.5%, -15%, 14µM*, -16, ?, 5%
8. CC(=O)Nc1ccc(S(=O)(=O)N2CCc3ccccc3C2)cc1
 : 7, 3.3%, 25%, 10%, -6, 1.1, -28%
9. COc1ccc(CNC(=O)c2ccccc2SCC(=O)NCc2ccco2)cc1
 : -1, -0.5%, 1%, nt, 5, nt, 8%
10. CCOc1ccc(S(=O)(=O)NCc2cccs2)cc1C(C)C
 : -10, 2.0%, -9%, nt, -22, nt, 1%
11. CC(c1ccc(O)cc1)(c1ccc(O)cc1)c1ccc(CCBr)cc1
 : 21, -0.5%, 20%, -3%, nt, 4.7, 4%
12. C#CCOCCOCCOCCNc1nc(N2CCN(C(=O)[C@H](CCCN=C(N)N)n3cc(C(N)[C@@H](C)CC)nn3)CC2)nc(N2CCN(C(=O)[C@H](CO)n3cc([C@@H](N)C(C)C)nn3)CC2)n1 (stereo partly drawn)
 : nt, -0.8%, nt, nt, -8, nt, 9%
13. Cc1ccc(CN2CCN(Cc3cn[nH]c3C3CCCCC3)CC2CCO)cc1 (stereo not drawn)
 : 13, 0.2%, 0%, 13%, -3, 3.9, 6%
14. COc1ccc(-c2nn(CCC(=O)O)cc2CCC(=O)O)cc1
 : 9, -0.1%, 1%, 3%, 3, 0.7, -3%
15. CCc1nc2ccc(C(=O)N3CCN(c4cccc(OC)c4)CC3)cc2nc1CC
 : 4, 0.3%&-2.5%, 34%, 1%, -21, nt, -1%
16. Cc1ccc(C(=O)OCC(=O)N(C)C2CCS(=O)(=O)C2)cc1S(=O)(=O)N1CCOCC1 (stereo not drawn)
 : -3, -2.6%, 5%, nt, -5, nt, 6%
17. CC1(C)CC(CCC(=O)Nc2ccccc2Cl)C(=O)O1 (stereo not drawn)
 : -1, 1.3%, -24%, ?, 1, 2.9, 11%
18. CCN(CC)C(=O)N1CCN(Cc2ccc3c(c2)OCO3)CC1
 : -1, 1.1%, ?, 12%, 5, -3.4, 5%
19. COc1ccc(CCN=C(N)NS(=O)(=O)c2ccc3ccccc3c2)cc1
 : 0, -1.9%, 4%, 7%, -5, 1.7, 2%
20. COC(=O)N/N=C/c1cc(Cl)cc(Cl)c1OCc1ccccc1F
 : -8, -2.1%, 23%, 6%, 3, 13, -7%
21. CC1CCN(c2ccc(/C=N/n3nnnc3N)cc2[N+](=O)[O-])CC1
 : nt, 1.1%, -30%, 11%, -10, 3.1, -4%
22. Cc1ccc(/C(O)=C2\C(=O)C(=O)N(C)C2c2ccccc2)cc1 (stereo not drawn)
 : nt, -3.7%, ?, nt, 0, nt, nt
23. O=C(c1cc(Sc2cccc(Cl)c2)nc2ccccc12)N1CCN(c2ccccn2)CC1
 : -12, nt, 24%[15.4 µM], 2%, -29, 1.5, -1%
24. COc1cccc(C(=O)COc2ccc3ccc(=O)oc3c2)c1
 : 0, -17%, ?, 5%, nt, -8.2, 5%
25. CCCSCCCNC(=O)Cn1c(=O)c2cccn2c2ccccc21
 : 5, -6.2%, -7%, 3%, nt, 3.5, -16%
26. CC1CC(C)CN(CC(=O)c2c[nH]c3ccccc23)C1 (stereo not drawn)
 : -6, nt, -20%, 3%, 7, ?, 6%
27. CC(=O)Oc1cccc2c1C(=O)C1CC=CC(OC(C)=O)C1C2=O (stereo not drawn)
 : nt, 1.1%, 28%, nt, -4, nt, 3%
28. Cc1nn(CC2CC2)c(=O)n1-c1ccc(Oc2ccccc2)cc1
 : -14, nt, -7%[15.4 µM], 0%, -3, 3.9, -7%
29. CC1(C(=O)O)CCC(C(=O)NCCc2ccccc2)C1(C)C (stereo not drawn)
 : 5, 0.3%, 4%, 5%, -1, 0.9, -26%
30. COc1ccc(C(CC(=O)O)N2Cc3ccccc3C2=O)cc1 (stereo not drawn)
 : -1, -2.7%, 28%, 11%, 0, -10, 11%
31. Cc1cccc(NC(=O)CSCC(=O)NCc2ccco2)c1
 : -9, -3.2%, 20%, -1%, -2, -5.7, 2%
32. COc1cccc(OC)c1C(=O)Nc1nc(-c2ccccc2)cs1
 : 19, nt, -56%[inhibitor], 12%, -6, 4.4, -2%
33. CS(=O)(=O)N1Cc2ccccc2CC1C(=O)OCC(=O)NCCc1ccc(S(N)(=O)=O)cc1 (stereo not drawn)
 : nt, 1.5%, -4%, nt, -2, nt, -5%
34. O=C(CC(=O)NCc1ccc(Cl)cc1)NCc1ccc(Cl)cc1
 : -11, nt, 1%, 10%, 3, -1.3, 6%
35. O=C(CSc1ccc(-c2cccnc2)nn1)N1CCCc2ccccc21
 : 28, nt, nt, 7%, nt, -0.6, nt
36. Cc1c(NS(=O)(=O)c2cccc(C(=O)NCc3ccco3)c2)c(=O)n(-c2ccccc2)n1C
 : nt, -4.6%, 28%, nt, -2, nt, -5%
37. Cc1cc(C)nc(NC(=S)NC(=O)c2ccccc2F)n1
 : nt, nt, 2%[15.4 µM], nt, -1, nt, 2%
38. COc1ccc(C2C(C(=O)N3CCN(C)CC3)c3cc(OC)c(OC)cc3C(=O)N2C)cc1 (stereo not drawn)
 : -9, nt, 13%[15.4 µM], -27%, 3, -0.4, -14%
39. O=C1c2cccc3c(N4CCCCC4)ccc(c23)C(=O)N1CCO
 : -12, -2.8%, 2%, -9%, 11, ?, 26%
40. COc1ccc(/C=N/NC(=O)c2ccc(CN3C(=O)c4cccc5cccc3c45)cc2)cc1O
 : 6, -7.0%, -7%, 11%, nt, -3.5, -2%
41. COc1ccccc1OCCOc1ccc(/C=C2/C(=N)N3OC(C)=CC3=NC2=O)cc1OC
 : nt, -10%, -2%, 8%, 0, 10, -1%
42. Clc1ccc(OCc2nnc(SCCN3CCCCC3)n2Cc2ccco2)cc1
 : 29, 0.1%, -45%[inhibitor], 25µM*, -5, 1.1, 13%
43. Cc1[nH]n(S(=O)(=O)c2ccccc2)c(=O)c1N=Nc1cccc(Cl)c1
 : -5, -0.4%, -6%[15.4 µM], 6%, -6, -1.7, 5%
44. CCOc1ccccc1N(CC(=O)Nc1ccc(OC)cc1OC)S(=O)(=O)c1ccccc1
 : -35, 1.3%, -72%[inhibitor], 13%, 3, 7.2, -49%
45. C=CCNc1nc(Nc2ccc(-c3nc4ccccc4o3)cc2)nc(N2CCOCC2)n1
 : -8, -41%, 32%, -4%, 0, 2.6, -20%
46. Cc1nn(Cc2ccc(F)cc2)c(C)c1NC(=O)c1cc(-c2ccco2)on1
 : -15, -5.2%, 17%, -15%, -3, ?, -8%
47. CCCNC(=O)c1onc(CSc2ccc(F)cc2)c1C(=O)NC(C)C
 : -20, 1.7%, nt, nt, 3, nt, -2%
48. CCOc1ccccc1NC(=O)C(C)CC (stereo not drawn)
 : 9, nt, 21%, 18%, 8, 1.7, 9%
49. COC(=O)c1ccc(/C=C(\C#N)c2ccccn2)cc1
 : -7, -6.2%, -2%, 15%, 7, -3.4, -17%
50. CCOc1ccc(OCC)c(NC(=O)c2ccc(CNc3c(N4CCOCC4)c(=O)c3=O)cc2)c1
 : 16, -2.3%, -11%, 3%, -7, 2.3, -7%

(continued)
Below each compound – TRPV1 potentiator, ClpP mod, gsp agonist, Sfp PPTase inh, CtBP-E1A inh, Menin-MLL FL inh, gsp antagonist
51. Cc1nnc(SCC(=O)NNC(=O)CC#N)[nH]c1=O
 : ?, 1.6%, -18%, ?, 0, 2.8, 14%
52. C(=N\Nc1nncc2ccccc12)/c1ccccc1
 : -2, 0.5%, -8%[15.4 µM], 24%, -1, 2.0, 12%
53. CS(=O)(=O)N(CC(=O)N1CCN(Cc2ccccc2)CC1)c1cccc([N+](=O)[O-])c1
 : -7, nt, -26%, 16%, 4, 0.0, -9%
54. O=C(c1cc2ccccc2cc1O)N1CCN(c2cccc(Cl)c2)CC1
 : 1, -1.5%, 6%[15.4 µM], nt, -4, nt, -15%
55. COc1ccc(Nc2nc3cc(C)ccc3cc2C#N)cc1
 : 14, nt, 1%, 9%, 13, ?, -17%
56. O=C(COC(=O)c1ccccc1NC(=O)c1ccco1)Nc1ncc(Cl)cc1Cl
 : 3, -20%, 7%, ?, -3, 4.8, -11%
57. O=C(Nc1cccc(Cl)c1Cl)c1ccc(-c2ccccc2)cc1
 : 2, -1.4%, 3%, 7%, 1, 2.6, 16%
58. Cc1ccccc1OCC(=O)Nc1cccc(S(=O)(=O)NC2=NCCC2)c1
 : 3, 1.4%, -8%, nt, -1, nt, 7%
59. O=C(CN1CCCC1)Nc1sc2c(c1C(=O)Nc1ccccc1)CCCC2
 : -3, 28µM*, 11%[15.4 µM], -1%, 3, nt, 0%
